Bioassay records from PubChem.
PrP UTR inh: suppresses PrP 5' UTR mRNA reporter expression | 340,000 tested, 0.35% active | cell-based PrP 5' UTR mRNA reporter, plate reader | inhibition, % (concentration not given with the values);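 active means every replicate at 50% or more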;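 further: 0 = median of the neutral control wells; tested in H4 reporter cells; numbers are from one replicate; inactives centre near -14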
BJeLR viability: BJeLR cell viability loss. inhibition, % (no concentration beside the values). 300,000 tested, 0.17% active. AID 1554. BJeLR (HRASV12) viability, CellTiter-Glo ATP luminescence, 48 h; reference of the scale not given here;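 active means replicate mean above 50%; inconclusive means above 50% but judged a plate artefact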;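 further: 50 nL library stock added to about 25 µL; numbers are from one replicate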
Bead autofluor: flagged as autofluorescent in microsphere protease counterscreen | compound autofluorescence counterscreen, microsphere flow cytometry; stronger effect = higher value | fluorescence intensity (concentration not given with the values) | 360,000 tested, 3.1% active | AID 624483;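 active means at least 3 SD above the mean of all compounds, about 16000 in these data; inconclusive means too few beads counted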;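 further: 100 nL of 1 mM stock went into each well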
Mtb hypoxia rep: inhibitors of hypoxia-regulated fluorescent reporter in Mycobacterium tuberculosis; M. tuberculosis hypoxia-regulated fluorescent reporter, fluorescence; 300,000 tested, 0.1% active; fluorescence inhibition, % (concentration not given with the values);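 active means 35 to 45% if threefold the growth effect, above 45% if 1.5-fold the growth effect; inactive means the rest, general growth blockers included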;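 further: wells of about 50 µL received 100 nL stock; 0% = vehicle wells and 100% = reference inhibitor wells; whole bacteria with a GFP reporter of the hypoxia response; strong numbers were not always called active; many hits fall short of the cut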
RN4220 kill: S. aureus RN4220 growth inhibition. inhibition, % (test concentration not listed). 330,000 tested, 0.33% active. OD600, 16 h;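 active means z-score of -3 or lower and OD600 up to 0.18 on both plates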;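 further: plate controls were untreated cells for no effect and reference antibiotic for full effect; stock transfer was 100 nL into about 80 µL; one replicate is shown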
Sa ugtP lethal: growth inhibition of S. aureus ugtP deletion strain; S. aureus RN4220 ugtP deletion, OD600 growth, 16 h; some inactives read as strong as hits; growth inhibition, % (concentration not given with the values); 330,000 tested, 0.54% active;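 active means z-score under -3 and OD600 up to 0.15 on both plates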;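 further: plate controls were untreated wells for no effect and antibiotic for full effect; wells of about 80 µL received 100 nL stock; the first replicate is given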
Mtb hypoxia rep growth: recorded beside Mtb hypoxia rep, whose call it bears; growth inhibition, %; measured here: M. tuberculosis growth (absorbance);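 0% = vehicle and 100% = reference antibiotic; read after six days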
Numbers without * were called inactive; ? = inconclusive; / = no result given; & = joins results of further samples.

SMILES	PrP UTR inh	BJeLR viability	Bead autofluor	Mtb hypoxia rep	Mtb hypoxia rep growth	RN4220 kill	Sa ugtP lethal
CCN(CC)S(=O)(=O)c1ccc(CNC(=O)CN2C(=O)NC3(CCc4ccccc43)C2=O)cc1 (stereo unspecified)	-14.4	/	6665	1.3	-1.5	2.8	4.6
CC(O)/C=C/c1ccc2ccccc2n1 (stereo unspecified)	-2.6	2.9	17160*	15.0	12.6	6.0	-2.5
CCOP(=O)(C(C#N)=C(C)O)c1ccccc1 (stereo unspecified)	/	/	/	8.7	10.1	5.1	-5.9
COc1ccc(CCNCc2cccc(C(F)(F)F)c2)cc1OC	-20.9	-16.6	7404	21.7	13.8	4.9	7.0
N#CCCS(=O)(=O)c1ccc(N)cc1	-10.0	2.2	1905	9.6	7.4	7.1	-0.5
COc1ccc(/C(C)=N/NC(=S)NCCc2ccccc2)c(O)c1	-9.0	0.3	3897	/	/	/	/
O=C(COC(=O)c1cccnc1Cl)NCCCc1ccccc1	-19.0	/	3984	6.8	1.5	8.5	1.0
O=S(=O)(NCc1ccc(Cl)cc1Cl)c1cccs1	-5.7	-1.2	3604	1.4	10.9	11.8	-8.2
CN1CCN(C(=O)CN(Cc2ccc(Cl)cc2)S(C)(=O)=O)CC1	-13.2	/	2734	/	/	2.5	4.7
O=C(O)c1ccc(NS(=O)(=O)c2cccc(C(=O)Nc3ccccc3[N+](=O)[O-])c2)cc1	-30.6	-4.3	4368	-7.9	7.0	4.4	4.0
COc1ccc(NC(=O)c2c(N)no[n+]2[O-])c(OC)c1	-9.1	-29.5	3875	13.9	3.4	-2.5	4.9
Clc1ccc(OCCOCCN2CCCCC2)c(Br)c1	-14.9	-2.3	?	17.3	14.4	1.7	-0.6
COc1cc(CNC(=O)C2CCCN2S(=O)(=O)c2ccccc2)cc(OC)c1OC (stereo unspecified)	-25.5	2.0	3474	-3.3	-0.3	1.5	3.0
CCCCCCN(C(=O)CCCN1C(=O)NC(c2ccc(-c3ccccc3)cc2)C(C(=O)OCc2ccccc2)=C1C)C(C)C(=O)NCCCC (stereo unspecified)	-4.3	/	3024	-1.1	5.7	3.0	-9.3
Cc1ccc(NC(=O)CN(C)C(=O)Cn2c(=O)oc3ccccc32)cc1	9.5	/	3097	21.6	6.1	4.6	3.1
COC(=O)C(C)Oc1ccc(-c2nccc(-c3cccs3)n2)cc1 (stereo unspecified)	-18.8	-6.8	2775	/	/	0.5	15.7
CCC(CC)COC(=O)C(C#N)c1nc2ccccc2nc1N1CCN(CC)CC1 (stereo unspecified)	-1.9	-6.6	21646*	-3.0	14.4	3.3	-21.5
Cc1nn(-c2ccccc2)c2sc(C(=O)O)cc12	6.0	0.9	6695	-6.2	-30.4	-4.2	-9.1
CC1Oc2ccccc2C=C1C=NNC(=O)c1ccccc1O (stereo unspecified)	/	/	/	4.8	3.4	11.8	-1.6
COc1ccc(-c2[nH]ncc2CN(CCO)CC23CC4CC(CC(C4)C2)C3)c(OC)c1	0.8	1.0	4212	15.7	5.2	-2.8	2.2

Complete entries as entered above. Order of values: PrP UTR inh, BJeLR viability, Bead autofluor, Mtb hypoxia rep, Mtb hypoxia rep growth, RN4220 kill, Sa ugtP lethal
Record of O=C(COC(=O)c1cccnc1Cl)NCCCc1ccccc1 = -19.0, /, 3984, 6.8, 1.5, 8.5, 1.0
Record of Cc1nn(-c2ccccc2)c2sc(C(=O)O)cc12 = 6.0, 0.9, 6695, -6.2, -30.4, -4.2, -9.1

The main list resumes; the 3 compounds before the break are reprinted first.
SMILES	PrP UTR inh	BJeLR viability	Bead autofluor	Mtb hypoxia rep	Mtb hypoxia rep growth	RN4220 kill	Sa ugtP lethal
Cc1nn(-c2ccccc2)c2sc(C(=O)O)cc12	6.0	0.9	6695	-6.2	-30.4	-4.2	-9.1
CC1Oc2ccccc2C=C1C=NNC(=O)c1ccccc1O (stereo unspecified)	/	/	/	4.8	3.4	11.8	-1.6
COc1ccc(-c2[nH]ncc2CN(CCO)CC23CC4CC(CC(C4)C2)C3)c(OC)c1	0.8	1.0	4212	15.7	5.2	-2.8	2.2
CSc1ccn(CCC(=O)O)c(=O)n1	-23.3	9.6	2822	/	/	2.0	0.7
CN(c1ccc(C(=O)Nc2nccs2)cc1)S(=O)(=O)c1ccccc1	-47.0	-3.0	7819	5.6	5.5	3.8	-9.7
CCOC(=O)CNC(=O)c1cccnc1Oc1ccc(Cl)cc1	5.3	-1.8	4374	-15.9	-2.2	5.7	4.3
CCCS(=O)(=O)Nc1c(OC)ccc2c1c(C(=O)OCC)c(C)n2C	-10.1	10.9	2315	1.8	7.8	6.3	-0.6
CCOC(=O)c1c(C)oc2c1cc(NS(=O)(=O)c1ccc(C(=O)O)cc1)c1ccccc12	-7.1	-12.1	4835	-13.0	8.1	8.8	-0.1
Cc1ccc(N(CN2C(=O)NC(C)(C)C2=O)CN2C(=O)NC(C)(C)C2=O)cc1	-22.6	-1.9	4407	0.8	3.0	3.4	-4.7
O=C(NC1CCCCC1)c1ccccc1NC(=O)C1CC(=O)N(c2ccccc2)C1 (stereo unspecified)	-10.8	-0.7	9900	-0.6	-4.1	-0.2	-2.3
COc1ccc(C(=O)NNC(=O)CN2CCC(n3nnc4cc(C(F)(F)F)ccc43)CC2)cc1	12.5	-3.0	8230	-5.7	-9.1	5.1	-2.0
O=C(NC(=S)N1CCCc2ccccc21)c1ccc([N+](=O)[O-])cc1	-26.7	-7.8	7685	-1.6	0.3	6.2	-2.5
COc1ccc(S(=O)(=O)CCC(=O)N2CCN(c3ccc([N+](=O)[O-])cc3)CC2)cc1	-7.3	1.0	5509	0.4	-1.8	0.4	3.8
CCc1ccc(NC(=O)CON=C(C)c2cc3ccccc3o2)cc1	/	/	/	3.6	-4.7	-5.4	7.7
O=C(NNc1nc2ccc(Cl)cc2s1)c1cc(-c2cccs2)nc2ccccc12	-1.6	5.3	5894	/	/	/	/
O=C(NC(Cc1c[nH]c2ccccc12)c1nnc2n1CCCCC2)c1ccccc1 (stereo unspecified)	-13.6	-6.4	11522	7.1	4.6	-1.2	15.9
Cc1ccc(C)c(N2N=C(C(=O)Nc3cccc(S(=O)(=O)N4CCCCC4)c3)CCC2=O)c1	-5.7	/	2762	22.3	7.5	4.3	3.8
Cc1cc(C)cc(COn2ccnc2)c1	-5.5	-3.3	2642	/	/	6.5	0.2
Cc1cc(=O)[nH]c(SCC(=O)N2CCN(C(=O)c3ccco3)CC2)n1	-30.1	/	7717	2.8	5.6	3.8	4.7
COC(=O)C1=C(N)OC2=C(C(=O)CC(C)(C)C2)C1c1cccs1 (stereo unspecified)	-13.8	-6.3	9738	15.9	10.1	-0.1	-0.9
CC1=CC(=C2C(=O)NC(=O)NC2=O)C=C(C(F)(F)F)N1Cc1ccccc1	-14.0	-4.7	2065	8.1	12.9	4.0	2.3
COc1ccc(NC(=S)Nc2cccc(C(F)(F)F)c2)c(C)c1	-9.1	-1.3	4504	13.3	11.6	-0.3	-0.7
O=C(c1ccc(Cl)nc1)N1CCN(S(=O)(=O)c2ccc3c(c2)OCCO3)CC1	-18.9	/	?	-13.2	-2.2	1.0	5.3
Cc1ccc(-c2nc3ccccc3[nH]2)s1	-80.1	24.6	?	8.2	9.4	3.4	4.1
COc1ccc(C(=O)Nc2ccccc2SCc2cc(=O)n3nc(C)sc3n2)cc1OC	-7.8	-1.6	5555	2.3	2.0	3.5	2.2
O=C(NCc1ccc(C(F)(F)F)cc1)C12CN(Cc3ccccc3)CC1C(c1cccc([N+](=O)[O-])c1)=NO2 (stereo unspecified)	-14.0	-3.6	3674	5.5	5.4	5.2	6.5
Cc1ccc(S(=O)(=O)N2CCCCC2)cc1NC(=O)COC(=O)C1=COCCO1	-13.9	7.1	4232	3.9	1.7	4.5	0.7
CC(NC(=O)c1ccc(CS(C)(=O)=O)cc1)c1ccc(-c2ccccc2)cc1 (stereo unspecified)	-18.2	-8.6	5740	5.9	-0.3	6.5	-5.3
O=S(=O)(NC1CCCCCCC1)c1cccs1	-14.6	4.3	10940	12.5	-1.0	7.8	8.8
O=C1CN=C(Nc2ccccc2)N1Cc1cccs1	-22.5	13.6	4475	-3.0	6.8	3.3	-0.9
COc1cccc(OC)c1C(=O)N1CCN(C(=O)c2ccc(-c3ccccc3)cc2)CC1	-18.5	-7.6	6042	2.1	-3.6	-1.7	-2.5
Cc1nn(C2CCS(=O)(=O)C2)c(Cl)c1/C=C/C(=O)OCC(=O)Nc1ccccc1[N+](=O)[O-] (stereo unspecified)	-9.3	-4.0	4304	3.0	8.1	14.1	4.9
Cc1cc(-c2cc(C(=O)NC3CCCC3)on2)nc(NCC2CC2)n1	-14.7	2.1	3070	-5.5	-1.8	6.9	-0.9
CC(=O)c1ccccc1NC(=O)COC(=O)CCCN1C(=O)c2cccc3cccc(c23)C1=O	15.6	-7.9	1964	11.5	-1.6	6.5	6.2
CCSc1nnc(SCC(=O)NNC(=O)c2ccccc2F)s1	-12.6	2.8	6081	-0.1	1.9	0.9	3.2
CC1(C)Cc2c(sc3c2c(=N)n(Cc2ccco2)c(=O)n3Cc2ccccc2)CO1	9.7	-3.0	2793	/	/	16.2	7.7
C/C(=C\COc1cc(=O)[nH]c2ccccc12)CCC(O)C(C)(C)O (stereo unspecified)	-1.7	-11.6	5561	/	/	4.0	8.9
COc1cc(CNc2nc3ccccc3n2C)cc(OC)c1OC	-16.3	-14.6	1989	11.9	2.7	3.9	2.8
Cc1cccc(NS(=O)(=O)c2ccc(Oc3ccccc3)cc2)n1	-34.5	-0.5	8374	2.0	4.0	2.7	-3.5
O=C(CSc1nc2ccccc2n1S(=O)(=O)c1ccccc1)N1CCCCC1	-18.0	-3.8	4659	/	/	10.0	-5.9
Cc1cc(C)nc(SCC(=O)O)n1	-7.8	-3.3	3038	4.2	1.4	4.5	9.7
O=C1c2ccccc2C(=O)N1CC1c2ccccc2CCN1C(=O)CN1CCOCC1 (stereo unspecified)	-10.3	4.3	5034	4.7	4.5	7.8	-0.2
Cc1ccccc1OCc1nnc(SCc2nc3ccccc3c(=O)[nH]2)n1C	-6.7	3.2	3946	4.2	3.9	2.6	8.1
O=C(COc1ccc(C(=O)c2ccccc2)cc1)Nc1cccnc1	-12.2	-2.2	5751	-3.0	-8.8	-4.7	5.2
CCC(=O)Nc1cc(C(=O)OCc2ccc(C(=O)Oc3ccccc3)cc2)ccc1C	-11.3	-4.2	2527	-7.0	2.4	6.2	-0.8
Cc1ccccc1S(=O)c1ccccc1C(=O)O (stereo unspecified)	-7.6	1.5	4592	9.9	13.9	1.0	5.2
Cc1ccc(C(=O)NCCOC23CC4CC(CC(C4)C2)C3)cc1	-15.3	3.4	7596	17.7	10.2	0.5	7.3
COc1ccc(CN2CCN(C(=O)Cn3nc(C)n4cccc4c3=O)CC2)c(OC)c1OC	-45.2	0.6	5359	11.3	6.2	1.3	-4.7
COc1ccc(C=NN2CCOCC2)cc1COc1ccc(F)cc1	/	/	/	13.7	3.2	5.9	8.2
CCOc1ccccc1C(=O)N[C@H](C(=O)Nc1nc2c(s1)CCCC2)C(C)C	-24.3	-4.5	2905	-13.9	-13.0	1.0	-14.0
CN(Cc1ccccc1F)C(=O)CCNC(=O)c1ccc(C(C)(C)C)cc1	-37.8	/	3589	-1.5	0.6	-5.3	8.3
O=C(NC1CC=CCC(CC(=O)N(CCO)Cc2ccccc2)C(=O)NCC(c2ccccc2)OC1=O)OCC1c2ccccc2-c2ccccc21 (stereo unspecified)	/	/	/	6.9&-0.2&2.3	11.4&2.2&9.9	-4.2&-3.2&5.2	7.6&10.2&2.4
Cn1nc(C(=O)Nc2ccc(Cl)cc2)cc1C(=O)Nc1ccc(Cl)cc1	-21.2	-1.2	3818	3.6	1.1	3.1	1.0
c1ccc(Cn2nnc3c(N4CCOCC4)ncnc32)cc1	-5.5	2.5	5708	15.6	5.7	0.1	7.2
COC(=O)c1c(NC(C)=O)csc1C	-23.1	3.3	/	-6.7	9.2	-5.6	0.8
CCOC(=O)C1=NN(c2cccc(C)c2)C2(S1)SC(C(C)=O)=C(C)N2c1ccccc1 (stereo unspecified)	-21.7	-11.1	6444	1.9	5.6	0.3	13.9
CCOC(=O)c1oc2cccc(O)c2c1CN(Cc1ccccc1)C(C)=O	-22.9	11.0	20279*	5.3	11.8	9.1	-18.4
Cc1oc(-c2ccc(Cl)cc2)nc1CS(=O)CC(=O)NCc1ccco1 (stereo unspecified)	-13.8	8.1	?	1.1	-1.3	2.7	4.0
